Screens as filed in PubChem BioAssay.
Mtb H37Rv: Mycobacterium tuberculosis H37Rv growth inhibition, cell based, confirmatory dose response (AID 1949); inhibition, % at 10 µg/mL, or IC50 in µg/mL where a hit was titrated; most inactive calls were filed without a number and no value below 0 was filed; 1.6% of 100,000 active;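 active = confirmed in a dose series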;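 note: bacteria grown 7 days with compound before Alamar blue readout; 0% = untreated bacteria and 100% = reference antibiotic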
* hit, by the source's call; i = inactive. These rows are one share of the data (hit frequency here may not be typical).

SMILES	Mtb H37Rv
COc1cc(NS(=O)(=O)c2ccc(NC(=S)NC(=O)c3ccc(Cl)cc3)cc2)nc(OC)n1	i
Cc1ccc(S(=O)(=O)N(CC(N)=O)Cc2cccc(C)c2)cc1	i
CCCCCNC(=O)C(=O)Nc1ccc([N+](=O)[O-])cc1	2%
Cn1c(COc2ccccc2)nnc1SCC(=O)c1ccc(Br)cc1	i
CC(=O)Nc1ccc(S(=O)(=O)Nc2ccc(S(=O)(=O)Nc3ccccc3Cl)cc2)cc1	i
CC1CCc2nc(NC(=O)CN3CCN(Cc4ccc5c(c4)OCO5)CC3)sc2C1 (stereo not drawn)	i
O=C(O)c1cc([N+](=O)[O-])ccc1NC1CCCCC1	1%
CCn1c(-c2cccc(C)c2)n[nH]c1=S	i
Cc1cccc2c1N(CCc1ccccc1)C(=O)C2=O	i
CN(c1cccc(NC(=O)CN(c2cc(C(F)(F)F)ccc2Cl)S(C)(=O)=O)c1)S(C)(=O)=O	i
O=C(NCc1ccccn1)C(=O)Nc1cc(Cl)ccc1Cl	1%
CCOC(=O)C1=C(c2ccccc2)NC(=O)NC1c1cc(Cl)cc(OC)c1OC (stereo not drawn)	i
Nc1ncnc2c1ncn2CCNCc1ccccc1	i
O=C1C2Cc3c([nH]c4ccccc34)C(c3ccccc3)N2C(=S)N1c1ccccc1 (stereo not drawn)	38%
CC(=O)c1cccc(NC(=O)NNC(=O)CCCOc2ccc(Cl)cc2C)c1	i
Nn1c(SCC(=O)NCCc2ccccc2)nc2ccccc2c1=O	i
CC(C)c1ccc(C(=O)NCc2ccc(F)cc2)cc1	i
COc1ccc(C2(C(=O)Nc3ccc(C)cc3)CCOCC2)cc1	i
Cc1ccc(-c2nc3ncccc3o2)cc1NC(=O)COc1ccc(C2CCCCC2)cc1	i
COC(=O)c1ccccc1NS(=O)(=O)c1cccc2ccccc12	1%
Cc1ccc(-c2nc3ncccc3o2)cc1NC(=O)c1ccc(Br)cc1	i
CCCCC(=O)Nc1cccc(NC(=S)NC(=O)c2ccc(OC)c(Cl)c2)c1	2%
O=C1c2ccccc2-c2c1cccc2C(=O)N1CCCc2ccccc21	i
CCOC(=O)c1cc(Cc2ccccc2)sc1NC(=S)Nc1cnccn1	7%
O=C1c2ccccc2C(=O)N1CCCCN(C(=O)c1ccc([N+](=O)[O-])cc1)c1ccc(Cl)cc1	i
O=C(CSCc1ccccc1Br)Nc1ccc(F)cc1F	i
CC1CCN(CCCCOc2ccc(C(=O)c3ccccc3)cc2)CC1	30%
O=C(c1cccc(Cl)c1Cl)N(C(=O)c1cccc(Cl)c1Cl)C1=NCCS1	6%
CCCCNC(=O)C1CCN(S(=O)(=O)c2ccc(OC)cc2)CC1	i
O=S(=O)(NCc1ccc2c(c1)OCO2)c1cc(Cl)c(Cl)cc1Cl	0%

Grouped by structure: those above with bromine (3)
SMILES	Mtb H37Rv
Cn1c(COc2ccccc2)nnc1SCC(=O)c1ccc(Br)cc1	i
Cc1ccc(-c2nc3ncccc3o2)cc1NC(=O)c1ccc(Br)cc1	i
O=C(CSCc1ccccc1Br)Nc1ccc(F)cc1F	i

Continuation:
SMILES	Mtb H37Rv
CCc1cc(=O)oc2c(C)c(OCC(=O)c3ccccc3)ccc12	i
CCOC(=O)c1c(NC(C)=O)sc2c(O)cccc12	i
CCn1c(SCC(=O)Nc2ccccc2)nc2cc(OC)c(OC)cc2c1=O	i
CC1CC(C)CN(C(=O)c2ccncc2)C1 (stereo not drawn)	i
Cc1nc2ccc(NC(=O)NCCC3=CCCCC3)cc2s1	17%
COc1cccc(NC(=O)Nc2ccc(C(N)=O)cc2)c1	i
Cc1cc(S(=O)(=O)N2CCN(C)CC2)c(C)cc1Cl	i
COC(=O)C1=CN(c2cc(C)cc(C)c2)C=C(C(=O)OC)C1c1ccc(OC)c(O)c1	15%
Cc1cc(C)c(S(=O)(=O)N2CCN(C(=O)Cc3ccccc3)CC2)c(C)c1	i
COc1ccc(OC)c(NC(=O)CC2Sc3ccccc3NC2=O)c1 (stereo not drawn)	1%
O=C(Nc1ccc(Nc2ccccc2)cc1)c1c(F)c(F)c(F)c(F)c1F	1%
COc1ccc(N2CCN(C3CC(=O)N(c4ccc(C(F)(F)F)cc4)C3=O)CC2)cc1 (stereo not drawn)	i
Cc1cc(OCc2nc(-c3ccc([N+](=O)[O-])cc3)no2)ccc1Br	i
COC(=O)c1ccc(COc2ccc3oc(C)c(C(=O)OC(C)C)c3c2)cc1	5%
CCCc1nc(SCc2c(F)cccc2Cl)n[nH]1	4%
O=C(Cn1cnc2ccccc2c1=O)c1ccc2ccccc2c1	i
O=C(CNC(=O)C1CCCCC1)Nc1nncs1	i
COc1ccccc1OCCCC(=O)Nc1ccc(Cl)c(C(F)(F)F)c1	i
CCOC(=O)C1=C(N)Oc2cc(O)ccc2C1c1ccc(C)cc1 (stereo not drawn)	i
Cc1onc(-c2ccccc2)c1C(=O)Nc1sc2c(c1C(N)=O)CCC(C)C2 (stereo not drawn)	1%
Cc1cc(Br)ccc1OCC(=O)Oc1ccccc1[N+](=O)[O-]	2%
CC(C)c1ccc(NC(=O)C2CCN(C(=O)c3ccc(F)cc3)CC2)cc1	i
O=C(Cc1nnc(NC(=O)Nc2cccc(Cl)c2)s1)Nc1ccccc1	i
Cc1ccc(NC(=O)CSc2nccc(C)n2)cc1	i
CN(c1ccc(C(=O)Nc2nncs2)cc1)S(=O)(=O)c1ccccc1	i
CCCCC(=O)Nc1cccc(NC(=S)NC(=O)c2ccc(COc3ccccc3)cc2)c1	1%
CCOc1ccccc1C(=O)Nc1cccc(C(=O)Nc2ccccc2C(=O)O)c1	i
O=C(c1ccc(Cl)cc1[N+](=O)[O-])N1CCCCC1	1%
COC(=O)c1c(NC(=O)C2C3C=CC(C3)C2C(=O)O)sc2c1CCC(C)C2 (stereo not drawn)	i
COc1ccc(Cl)cc1NC(=O)CCCN1C(=O)c2ccccc2C1=O	i

Carrying on.
SMILES	Mtb H37Rv
CCN(CC)S(=O)(=O)c1cccc(C(=O)Nc2nnc(-c3ccccc3)s2)c1	i
COC(=O)c1ccc(COn2c(=O)c(-c3cc4ccccc4o3)[n+]([O-])c3ccccc32)cc1	i
CCN(C(=O)c1ccccc1I)c1ccccc1	10%
COc1cccc(C(=O)NC(=S)Nc2cc(-c3nc4cc(C(C)C)ccc4o3)ccc2Cl)c1	2%
Cc1ccccc1C(=O)NCC1COc2ccccc2O1 (stereo not drawn)	i
CCc1c(C)sc(NC(=O)c2cccc(F)c2)c1C(=O)OC(C)C	i
O=C(CCN1C(=O)c2ccccc2S1(=O)=O)NCc1ccco1	i
COc1ccc(S(=O)(=O)N(CC(=O)NC(C)c2ccccc2)Cc2ccccc2)cc1 (stereo not drawn)	4%
O=C(Nc1cccnc1)C1OCCc2ccccc21 (stereo not drawn)	i
Nc1nnc(CC(=O)N2CCCC2)s1	i
Cc1cccc(C(=O)Nc2ccc(OCc3ccccc3)cc2)c1[N+](=O)[O-]	i
Cc1nn(Cc2cccc(NC(=S)NCc3ccco3)c2)c(C)c1Br	8%
Cc1ccccc1OC(=O)c1sc2ccccc2c1Cl	2µg/mL*
O=C(CN(Cc1ccccc1F)S(=O)(=O)c1ccc(Cl)cc1)Nc1ccccc1Cl	i
Fc1ccc2c(c1)c1n[nH]c(=S)nc1n2CCc1ccccc1	i
CCOc1ccc(C(=O)NC(=S)Nc2ccc(Cl)c(C(=O)O)c2)cc1Br	3%
Cn1c(SCC(=O)Nc2nccs2)nnc1-c1ccc(N)cc1	i
Cc1csc(NC(=O)c2sc3nc(-c4cccs4)ccc3c2N)n1	i
CC(=O)Nc1ccc(NC(=O)c2cc(C)ccc2C)cc1	i
COc1cccc(NC(=O)CSc2nc(C)c(Cc3ccccc3)c(=O)[nH]2)c1	i
COc1ccc(-c2cc(C(=O)O)c3cc(C)ccc3n2)cc1	1%
COc1cc(C)c(Br)cc1S(=O)(=O)N1CCCCC1	6%
CC1=C(C)CC(C(=O)Nc2ccc(Br)cc2)C(C(=O)O)C1 (stereo not drawn)	i
COc1ccccc1-n1c(C)c(C(C)=O)c(C(C)=O)c1C	4%
Fc1ccccc1CSc1nnnn1-c1ccccc1	i
CCn1ncc(NC(=O)Nc2cccc(C(F)(F)F)c2)c1C(N)=O	i
Cc1ccccc1C(=O)N1CCN(c2ccc(NC(=O)COc3cc(C)c(Cl)c(C)c3)cc2)CC1	3%
Nc1cc(N)nc(SCC(=O)NC2CCCCC2)n1	i
Cc1cc(C)cc(NC(=O)c2ccccc2OCc2ccc(N3C(=O)CCC3=O)cc2)c1	1%
S=C(NCCc1c[nH]c2ccccc12)NC1CCCC1	i

The list continues.
SMILES	Mtb H37Rv
COc1nc(C)ccc1-c1noc(-c2ccc(Cl)cc2)n1	i
O=C(CN1C(=O)c2ccccc2C1=O)Nc1cccc(Cl)c1	i
COc1ccc(NC(=S)NC(=O)c2cc(Br)ccc2Cl)c(OC)c1	i
O=C(NCc1ccc(Cl)cc1)c1cccc(COCC(F)(F)C(F)F)c1	1%
O=C(Nc1ccc(C(=O)Nc2nccs2)cc1)c1ccccc1	46%
CC(C)c1ccc(N(CC(=O)N(C)C)S(=O)(=O)c2ccccc2)cc1	i
COc1ccc(/C=C2\C(=O)NC(=O)N(c3ccccc3)C2=O)cc1OC	0%
O=C1CC(NC2CCCCC2)C(=O)N1c1cccc2ccccc12 (stereo not drawn)	i
COc1ccc(NC(=O)CCc2ccccc2)cc1NC(=O)c1ccco1	i
COc1ccc(Cc2nnc(NC(=O)C(C)Oc3ccc(Cl)cc3Cl)s2)cc1 (stereo not drawn)	i
O=C(CCSc1ccc2ccccc2n1)NCCc1ccccc1	i
COc1ccc(OC)c(NC(=O)C(=O)NC2CC2)c1	i
Cc1ccc(N)cc1S(=O)(=O)N1CCCCC1	i
COc1ccc(N2CCN(C(=O)c3cccc4ccccc34)CC2)cc1	i
CC(C)NC(=O)C(=O)NCCc1c[nH]c2ccccc12	i
O=C(c1ccc(Cl)c(S(=O)(=O)N2CCOCC2)c1)N1CCC(Cc2ccccc2)CC1	i
O=C(CN1CCN(c2ccccc2Cl)CC1)Nc1ccc(Br)cc1	i
COc1ccc(COCC(O)CN2CCN(Cc3ccccc3)CC2)cc1OC (stereo not drawn)	2%
COc1ccc(C(=O)NCc2nnc(SCC(=O)Nc3nccs3)n2C)cc1	i
O=S(=O)(NCC1CCCO1)c1ccc(Oc2ccccc2)cc1 (stereo not drawn)	i
COc1ccccc1NC(=O)c1c(NC(=O)c2ccccc2F)sc2c1CCC2	i
CCc1cc2c(N3CCOCC3)ncnc2s1	i
CCc1cc(-c2n[nH]c(C)c2Oc2ccc(F)cc2)c(O)cc1O	i
COc1ccc(Br)cc1CN1CCCC(C(=O)N2CCCCCC2)C1 (stereo not drawn)	i
COc1ccc(NC(=O)Nc2ccccc2C(N)=O)c(OC)c1	i
CS(=O)(=O)N(CC(=O)NC1CCCCCC1)c1ccccc1F	i
Cc1cnc(NC(=O)c2ccncc2)s1	i
Cc1nn2c(CN(C(=O)COc3ccccc3)c3ccccc3)nnc2c2ccccc12	i
COc1cccc(C2CC(=O)Nc3cc4c(cc32)CCC4)c1 (stereo not drawn)	6%
COc1ccc([N+](=O)[O-])cc1NC(=S)NC(=O)COc1ccc(Br)cc1Cl	11%

The listing continues.
SMILES	Mtb H37Rv
COc1ccc(Br)cc1S(=O)(=O)n1nc(C)cc1C	i
COc1ccccc1N1CCN(C2CCN(C(=O)c3cccs3)CC2)CC1	i
Cc1ccc2nc(-c3ccc(N/C(N)=N\c4nc(C)cc(C)n4)cc3)sc2c1	26µg/mL*
C=CCn1c(SCc2ccccc2C#N)nnc1-c1cc(Br)ccc1O	i
Cc1ccc(CNC(=O)CCC(=O)O)cc1	1%
CCOc1ccc(-c2noc(COC)n2)cc1OC	i
Cc1cc(NC(=O)c2cc3nc(C4CC4)cc(C(F)(F)F)n3n2)n(-c2ccccc2)n1	2%
COC(=O)c1cc(NC(=O)c2cc(Br)cc(C)c2OC)cc(C(=O)OC)c1	i
COc1cccc(N(CC(=O)Nc2ccc(OC)c(Cl)c2)S(C)(=O)=O)c1	i
CCOc1ccc(N(CC(=O)Nc2ccc(F)cc2F)S(=O)(=O)c2ccccc2)cc1	i
Cc1ccc(S(=O)(=O)N(CC(=O)N2CCC(C(N)=O)CC2)Cc2ccc(F)cc2)cc1	i
CCc1nc2sc(C(=O)NCCc3ccc(OC)c(OC)c3)c(N)c2c(C(F)(F)F)c1C	8%
Cc1sc2ncnc(SCCc3ccccc3)c2c1C	28%
O=[N+]([O-])c1ccc(N2CCCC2)cc1N1CCN(c2ccccc2)CC1	i
Cc1c(NC(=S)NC(=O)C(c2ccccc2)c2ccccc2)cccc1-c1nc2ncccc2o1	49%
CCOC(=O)Cn1c(-c2ccccn2)nc2ccccc21	i
CCN1CCN(CCOc2cccc(C(F)(F)F)c2)CC1	i
CCCCOc1ccc(C2C(C(=O)c3ccco3)=C(O)C(=O)N2CCOC)cc1OC (stereo not drawn)	i

A different layout for some results above.
Structure: COc1ccccc1N1CCN(C2CCN(C(=O)c3cccs3)CC2)CC1
  Mtb H37Rv: i

Structure: CCc1nc2sc(C(=O)NCCc3ccc(OC)c(OC)c3)c(N)c2c(C(F)(F)F)c1C
  Mtb H37Rv: 8%

Structure: COc1ccc(Br)cc1S(=O)(=O)n1nc(C)cc1C
  Mtb H37Rv: i

Structure: Cc1cc(NC(=O)c2cc3nc(C4CC4)cc(C(F)(F)F)n3n2)n(-c2ccccc2)n1
  Mtb H37Rv: 2%
